Source: PubChem BioAssay
INS promoter inh = inhibitors of insulin promoter-driven GFP, primary screen, imaging, TRM-6 cells (human fetal islet line), eGFP reporter, cell count | AID 1273, 2008 | reporter expression induced with tamoxifen | inhibition, % at 2 µM | hit rate 0.9% among 130,000;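 active = inhibition above the mean plus 3 SD, with well images judged a real hit on visual review, cut at about 60% in these data, passing the limit was not always enough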
HSV augment = enhancers of HSV replication in host cells, fold increase, host cell viability | HSV replication augmentation in cells | maximum fold increase | AID 1956, 2009 | hit rate 0.005% among 220,000;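 active = peak rise of 1.5-fold or more in the series; tested in PC3 cells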;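 also: first round at 10 µM; read as green reporter fluorescence; hits show the peak of a series up to 25 µM; 1 = signal of infected wells without compound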
RGS16-Gao HTS = modulators of RGS16 binding to Galphao, primary screen, biochemical, human proteins, multiplexed bead flow cytometry. Regulator of G-protein signaling 16 (Homo sapiens) + Guanine nucleotide-binding protein …. bead-based flow cytometry RGS16-Galphao binding, fluorescence; actives lie on both sides. binding response (% of control), % at 10 µM. hit rate 0.38% among 220,000. AID 1441, 2008;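 active = below 25% or above 175%, edge rows of some plates excepted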;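 also: Galphao activated by GDP with aluminum fluoride before binding; 100% = wells without compound and 0% = beads without RGS; some results beyond the cut were filed as inactive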
Target sequence (O15492 whole entry, looked up): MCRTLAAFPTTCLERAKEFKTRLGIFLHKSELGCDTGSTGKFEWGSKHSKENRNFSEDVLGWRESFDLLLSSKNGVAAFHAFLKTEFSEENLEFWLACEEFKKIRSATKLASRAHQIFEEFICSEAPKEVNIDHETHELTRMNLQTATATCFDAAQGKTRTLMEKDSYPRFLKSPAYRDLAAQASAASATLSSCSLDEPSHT
Target sequence (P09471 whole entry, looked up): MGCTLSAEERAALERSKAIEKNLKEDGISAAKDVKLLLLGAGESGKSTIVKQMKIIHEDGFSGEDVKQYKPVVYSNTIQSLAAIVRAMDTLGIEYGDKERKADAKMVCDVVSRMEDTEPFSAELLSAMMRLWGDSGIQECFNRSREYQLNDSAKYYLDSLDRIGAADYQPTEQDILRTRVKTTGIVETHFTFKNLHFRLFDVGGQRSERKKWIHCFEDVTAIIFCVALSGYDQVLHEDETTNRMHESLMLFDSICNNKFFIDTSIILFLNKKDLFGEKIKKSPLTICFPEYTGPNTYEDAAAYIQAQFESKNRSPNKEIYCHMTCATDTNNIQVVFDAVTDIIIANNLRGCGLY
PKD1 inh = inhibitors of human PKD1 kinase, biochemical, fluorescence polarization. Serine/threonine-protein kinase D1 (Homo sapiens), Q15139. inhibition, %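 (about 10 µM by stock and volumes)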. PKD1 kinase fluorescence polarization assay. hit rate 0.056% among 200,000. AID 797, 2007;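 active = inhibition of 50% or more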;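 also: controls were vehicle for no effect and a reference inhibitor for full effect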
GALR2 ag = GALR2 receptor agonists, primary screen, cell-based | Galanin receptor type 2 (Homo sapiens), O43603 | GALR2-expressing cells, agonist activation read-out | activation, %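 (tested at 5 µM)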 | hit rate 0.48% among 140,000;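 active = above mean plus 3 SD of all compounds, about 5% in these data, not always enough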;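 also: 0% = vehicle buffer wells and 100% = reference agonist at full effect; tested in CHO reporter cells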
Target sequence (O43603 whole entry, looked up): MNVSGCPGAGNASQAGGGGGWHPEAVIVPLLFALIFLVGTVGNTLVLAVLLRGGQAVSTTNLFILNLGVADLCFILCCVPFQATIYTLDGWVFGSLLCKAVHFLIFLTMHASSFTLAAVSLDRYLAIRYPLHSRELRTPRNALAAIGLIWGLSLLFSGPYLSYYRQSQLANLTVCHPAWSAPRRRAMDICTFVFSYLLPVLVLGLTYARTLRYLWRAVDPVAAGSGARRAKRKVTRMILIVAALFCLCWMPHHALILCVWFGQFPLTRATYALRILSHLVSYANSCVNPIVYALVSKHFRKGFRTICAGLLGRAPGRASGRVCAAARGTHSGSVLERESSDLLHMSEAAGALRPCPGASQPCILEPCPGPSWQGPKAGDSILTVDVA
INS promoter inh cell count = recorded beside INS promoter inh, whose call it bears; normalized cell count, %; measured here: cell count, toxicity; reference of the scale not given here;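 cells exposed to compound for 48 h; stained nuclei by imaging scaled within each plate; lower means fewer cells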
HSV augment primary fold = also measured in HSV augment; calls as there; fold increase; compound at 10 µM; measured here: primary screen fold increase 10 uM; tested in PC3 cells;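 GFP signal in the first replicate; 1 = infected wells without compound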
Starred values were filed as active, the others as inactive; i = inactive; · = not tested or not shown; + = active, no number; & = joins results of further samples; [ ] = dose if it differs, or a comment.

SMILES	INS promoter inh	INS promoter inh cell count	HSV augment	HSV augment primary fold	RGS16-Gao HTS	PKD1 inh	GALR2 ag
CCSc1nnc(NC(=O)C2CCCCC2C(=O)O)s1 (configuration not stated)	3	137	i	0.99	104	-13	1.8
CC1CCC(C(C)C)C(OC(=O)Cn2nnc3c(cnn3-c3ccccc3)c2=O)C1 (configuration not stated)	·	·	i	0.94	102	·	·
Cc1ccc(N/C(N)=N/c2nc(CSc3ccc(C)cc3)cc(=O)[nH]2)cc1	·	·	·	·	101	4	-1.0
O=C(CN1CCOCC1)Nc1ccccc1C(=O)O	-321	129	i	1	102	-5	-2.1
Cc1ccc(OCC(O)Cn2c(NCCc3ccccc3)nc3c2c(=O)[nH]c(=O)n3C)cc1 (configuration not stated)	30	76	i	0.84	79	-3	0.7
O=C(c1ccncc1)c1ccc([N+](=O)[O-])cc1	·	·	i	0.97	93	2	·
COc1ccc(OC)c2sc(Cl)nc12	·	·	i	1.2	96	1	·
CCC(CC)C(=O)NCCCN1CCOCC1	-21	63	i	0.97	103	-11	-1.0
S=C(NCCc1ccccc1)NCC(c1ccco1)N1CCCCC1 (configuration not stated)	6	100	i	1.2	102	1	·
O=C(CCCc1nc2ccccc2s1)NCc1ccc(F)cc1	13	31	i	0.96	54	-12	-1.7
O=S(=O)(NCc1cccnc1)c1ccc(Br)s1	·	·	i	1	96	-8	-2.1
O=C(NCc1cccnc1)C1CCCN(S(=O)(=O)c2ccc(Br)cc2)C1 (configuration not stated)	-43	132	i	0.92	112	0	-0.5
Cc1cccc(NCCC(=O)c2ccc([N+](=O)[O-])cc2)c1C	·	·	i	0.88	96	-4	·
CCC(C)(C)n1nnnc1C(c1cc(OC)c(OC)c(OC)c1)N1CCN(c2ccccc2)CC1 (configuration not stated)	28	98	i	0.95	96	1	-1.7
COc1ccc(NC(=O)Cc2coc3cc(C)ccc23)cn1	·	·	i	0.9	99	-3	·
COc1cc2c(cc1OC)C(C(=O)Nc1cccc(C)n1)C(c1cccnc1)N(C)C2=O (configuration not stated)	0	64	i	0.88	101	-17	-2.0
S=C(Nc1ccc(N2CCOCC2)cc1)Nc1ccc2snnc2c1	·	·	i	0.9	100	-1	·
NS(=O)(=O)c1ccc(NC(=O)COC(=O)c2cnccn2)cc1	·	·	i	0.83	101	-1	·
CCOc1ccc(C(=O)NC(Cc2ccccc2)C(=O)OC)cc1 (configuration not stated)	45	56	i	0.99	106	1	-0.7
Cc1cc(C)nc(NC2=NCC(=O)N2c2ccccc2)n1	-9	107	i	1	100	-5	-1.8
COc1cc(OC)cc(C2C(C#N)=C(N)Oc3n[nH]c(-c4cccnc4)c32)c1 (configuration not stated)	32	92	i	0.88	102	-9	-2.9
Cc1nnc(SCc2cccc(Cl)c2)n(N)c1=O	i	37	i	0.97	95	-5	·
CN1CCN(CCCNC(=O)C2CC(=O)N(C3CCCCC3)C2)CC1 (configuration not stated)	16	154	i	0.91	104	5	1.2
COC(=O)n1c(SC)nc2ccccc21	52	125	i	0.86	105	-8	-1.2
O=C(CSc1n[nH]c(-c2ccccc2)n1)c1ccccc1	·	·	i	0.93	95	-3	-2.3

Random excerpt: three entries already listed, in no set order.
SMILES	INS promoter inh	INS promoter inh cell count	HSV augment	HSV augment primary fold	RGS16-Gao HTS	PKD1 inh	GALR2 ag
Cc1cc(C)nc(NC2=NCC(=O)N2c2ccccc2)n1	-9	107	i	1	100	-5	-1.8
CCSc1nnc(NC(=O)C2CCCCC2C(=O)O)s1 (configuration not stated)	3	137	i	0.99	104	-13	1.8
COc1ccc(NC(=O)Cc2coc3cc(C)ccc23)cn1	·	·	i	0.9	99	-3	·

(more compounds)
SMILES	INS promoter inh	INS promoter inh cell count	HSV augment	HSV augment primary fold	RGS16-Gao HTS	PKD1 inh	GALR2 ag
CN1/C(=C\C=N\O)C(C)(C)c2ccccc21	·	·	i	1.1	105	6	·
O=C(c1[nH]ncc1-c1ccc(Cl)cc1)C1CO1 (configuration not stated)	·	·	i	0.77	105	·	·
O=C(c1cc(-c2ccc(Cl)c(Cl)c2)on1)N1CCCCC1	·	·	·	·	101	5	-1.1
CC(C)Oc1nc(-c2ccc(Cl)cc2)nc2ccccc12	·	·	i	1.1	98	·	·
Cn1c(=O)n(CC(=O)N2CCN(c3nnc(-c4ccccc4)c4ccccc34)CC2)c2ccccc21	17	88	i	1.1	99	0	-0.3
CCOCCCn1c(=S)[nH]c2cc(C(=O)NCCCN(CC)CC)ccc2c1=O	13	118	i	0.83	102	0	·
NC(=O)C1CCN(C2CC(=O)N(Cc3cccs3)C2=O)CC1 (configuration not stated)	-20	101	i	0.78	103	-3	0.2
COc1cc(/C=N/NC(=O)Cc2cccs2)c([N+](=O)[O-])cc1OC	32	153	i	0.86	104	-6	-1.9
O=C(O)c1ccc(S(=O)(=O)c2ccc3c(c2)C(=O)N(NC(=O)c2ccccc2)C3=O)cc1	33	118	i	0.93	95	1	·
CCOC(=O)c1cc(/C(C)=N/OC(=O)c2ccc(C(C)(C)C)cc2)on1	·	·	i	1.2	82	·	·
COc1ccccc1CNc1cc(CSc2ccc(Cl)cc2)nc(C)n1	4	76	i	1	100	-4	-1.7
Cc1ccc(CS(=O)(=O)Cc2ccc(C(=O)NCc3ccccn3)o2)cc1	11	83	i	1	104	-8	-0.4
Cc1ccc2nc(N(CCCN(C)C)C(=O)c3ccco3)sc2c1	41	62	i	0.93	+[activator]	1	·
O=C(CSc1nnc(CNc2ccc(F)cc2)o1)c1ccccc1	·	·	i	1.1	101	0	·
Brc1cccc(CNCCCN2CCOCC2)c1	-40	131	i	0.95	99	4	·
Cc1oc(C)c(C(=O)O)c1COc1ccc(C(=O)O)cc1	48	132	i	1	100	-6	-4.2
C#CCOCCOCCOCCNc1nc(N2CCN(C(=O)[C@H](Cc3ccc(O)cc3)n3cc(CCO)nn3)CC2)nc(N2CCN(C(=O)[C@H](Cc3ccc(O)cc3)n3cc(CCO)nn3)CC2)n1	24	95	·	·	104	2	-1.1
COc1cccc(/C=N/NC(=O)CCc2n[nH]c(=O)[nH]c2=O)c1O	·	·	i	0.92	92	3	-0.5
CC(C)OC(=O)/C(=C/c1ccc2c(c1)c1ccccc1n2C)NC(=O)c1ccccc1	·	·	i	0.93	39	2	-0.3
CSc1ccc(C(=O)C2CCCN(Cc3ccc(N4CCNC4=O)cc3)C2)cc1 (configuration not stated)	·	·	i	0.96	96	-4	·
O=c1[nH]c(CSc2nnc(-c3ccncc3)n2Cc2ccco2)nc2ccccc12	·	·	i	0.92	91	-4	-0.4
COc1ccccc1CNC(=O)CSc1ccc(C(=O)Nc2ccccc2OC)cc1[N+](=O)[O-]	10	92	i	0.97	119	1	-1.0
O=S(=O)(Nc1ccc(S(=O)(=O)Nc2cccc3ccccc23)cc1)c1ccccc1	19	83	i	1.1	24	6	-3.8
COC(=O)c1cc2c(ccn2-c2ccc(F)cc2)n1Cc1cccc(OC)c1	-11	137	i	1	105	-5	2.2
Cc1cccc(S(=O)(=O)NC(Cc2c[nH]c3ccccc23)C(=O)O)c1 (configuration not stated)	-33	106	i	1.1	101	2	0.4

More structures follow.
SMILES	INS promoter inh	INS promoter inh cell count	HSV augment	HSV augment primary fold	RGS16-Gao HTS	PKD1 inh	GALR2 ag
Cc1ccc([N+](=O)[O-])cc1NC(=O)CCCOc1ccccc1	-67	55	i	0.7	114	-3	-4.0
O=[N+]([O-])c1cccn2cc(-c3ccc(Br)cc3)nc12	·	·	i	1.1	96	0	·
CC(C)[C@@H]1NC(=O)c2cc([N+](=O)[O-])cc(F)c2NCCC[C@@H](C(N)=O)NC(=O)[C@H](CO)NC1=O	25	132	i	0.92	221	10	-2.1
O=C(O)c1ncc(Cl)c(Cl)c1Cl	·	·	i	0.94&0.92	100&98	·	·
Cc1ccc(/C=C2\SC(N3CCN(C(c4ccccc4)c4ccccc4)CC3)=NC2=O)o1	26	130	i	1.1	82	-4	-0.4
Cc1cccc(Oc2coc3cc(OC(=O)c4cc5ccccc5oc4=O)ccc3c2=O)c1	-72	108	i	0.94	96	1	-2.1
Cc1ccc(C2=NN(C(=O)CN3C(=O)c4ccccc4S3(=O)=O)C(c3ccco3)C2)cc1 (configuration not stated)	-55	117	i	0.96	106	-6	·
COc1ccccc1-n1c(SCC(N)=O)nnc1-c1ccccc1	-41	79	i	0.81	100	-12	-1.4
COc1ccc(NC(=O)CSc2nnc(CNC(=O)c3ccco3)o2)cc1	-45	122	i	1	111	-5	·
CCOc1ccc(NC(=O)c2ccccc2NC(=O)CN(C)CC(=O)Nc2ccc(C)cc2)cc1	-69	196	i	0.84	104	-10	0.2
O=C1c2ccc(-c3nc4ccccc4o3)cc2C(=O)N1Cc1cccnc1	-50	66	i	0.85	·	0	-1.4
COc1ccc(/C=N/NC(=O)c2ccc(Br)cc2)cc1CN1CCOCC1	·	·	i	1.1	98	·	·
O=C(O)CCC(=O)NNC(=O)c1cccc(Cl)c1	30	110	i	0.94	105	-4	-2.4
Oc1ccc(Cl)cc1-c1cc(-c2cccc(Br)c2)n[nH]1	-17	112	i	1	101	-4	-0.4
CC(=O)NC12CC3CC(C1)CC(C(=O)Nc1nccs1)(C3)C2	·	·	i	0.88	99	-11	-1.1
O=S1(=O)N=C(Nc2nc3c(s2)CCCC3)c2ccccc21	9	123	i	0.94	102	1	-0.4
Cc1ccc(N2C(=N)SCC2=O)cc1Cl	-16	146	i	0.79	98	-9	-1.0
COCCCN1C(=O)C(=O)/C(=C(/O)c2ccc(OC)cc2)C1c1ccc(O)c(OC)c1 (configuration not stated)	60	139	i	0.98	99	3	-1.7
Cc1nn(C)c(C(=O)NNC(=S)Nc2ccc(Cl)cc2)c1[N+](=O)[O-]	·	·	i	1	106	4	-2.0
COc1cccc2c1c(NC(=O)c1cc(C)on1)nn2C	·	·	i	1	102	·	·
COCCn1c(N)c(NCc2ccccc2)c(=O)n(CC(=O)Nc2cc(C)ccc2C)c1=O	-57	92	i	1	101	-3	-0.3
Nc1c(C(=O)Nc2ccccc2)c2nc3ccccc3nc2n1CCCN1CCOCC1	·	·	i	0.79	98	·	·
CC1CCCCN1S(=O)(=O)c1ccc(S(=O)(=O)N(CC(=O)Nc2ccccc2)Cc2cccs2)cc1 (configuration not stated)	·	·	i	0.8	105	6	-0.8
COc1ccc(/C=C/c2nnc(NC(=O)COc3cccc(C)c3)s2)cc1	·	·	i	0.75	104	4	0.1
COc1ccccc1-c1cn[nH]c(=S)n1	18	54	i	0.97	109	-2	-1.3

More compounds follow:
SMILES	INS promoter inh	INS promoter inh cell count	HSV augment	HSV augment primary fold	RGS16-Gao HTS	PKD1 inh	GALR2 ag
O=[N+]([O-])c1ccc(Sc2ccccc2Cl)nc1	27	113	i	0.9	97	2	-0.4
NC(=O)[C@H]1CC2(CC(c3cccc(NC(=O)COc4ccc(Cl)cc4)c3)=NO2)CN1C(=O)Cc1ccc([N+](=O)[O-])cc1 (some centres not stated)	·	·	i	0.7	107	·	·
CCOc1ccccc1NC(=O)Nc1cccc(S(N)(=O)=O)c1	·	·	i	0.9	101	·	·
Cc1ccc(CN(C)C(=O)c2ccccc2Oc2ccccc2)o1	-3	119	i	0.77	94	1	-3.6
Cc1cc(C(C)(C)C)cc(S(=O)(=O)Nc2cccc(C(=O)O)c2)c1C	14	55	i	1.1	99	-5	-2.1
COC(=O)C(C)n1cnc2c(cnn2-c2ccc(Cl)cc2)c1=O (configuration not stated)	-1	66	i	0.99	107	-5	-1.3
COc1ccccc1N/N=C/c1ccc2c(c1)OCO2	·	·	i	1	91	4	3.4
O=C1CCCc2oc3c(cc(NS(=O)(=O)c4ccc5c6c(cccc46)C(=O)N5)c4ccccc43)c21	·	·	i	0.91	105	·	·
C/C(=N/NC(=O)CNc1ccc(C)cc1)c1ccc(Br)s1	33	113	i	0.9	109	9	-2.9
Cc1cc(N2CC(C(=O)NCc3cccnc3)CC2=O)ccc1C(C)C (configuration not stated)	·	·	i	0.91	106	·	·
Fc1ccccc1N1CCN(c2nnnn2-c2ccccc2)CC1	-36	131	i	0.92	115	4	·

Single entries from the results shown.
COc1ccc(NC(=O)CSc2nnc(CNC(=O)c3ccco3)o2)cc1 in HSV augment primary fold = 1
O=C(c1ccncc1)c1ccc([N+](=O)[O-])cc1 in RGS16-Gao HTS = 93
CC(C)Oc1nc(-c2ccc(Cl)cc2)nc2ccccc12 in HSV augment primary fold = 1.1
COc1cc2c(cc1OC)C(C(=O)Nc1cccc(C)n1)C(c1cccnc1)N(C)C2=O (configuration not stated) in GALR2 ag = -2.0
Cc1ccc(CS(=O)(=O)Cc2ccc(C(=O)NCc3ccccn3)o2)cc1 in RGS16-Gao HTS = 104
